GLA inh pH 4.5: alpha-galactosidase A (human) inhibition, pH 4.5. purified enzyme, 4-MU-alpha-Gal fluorescence, pH 4.5. activity change, negative = inhibition, % at 105 µM. 230,000 tested, under 10 active; inconclusive = small, poorly fitted or top-dose-only inhibition, or a rising curve; inactive = flat fitted curve, though single readings scatter; no compound was filed as active;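 further: 0% = full activity with enzyme and -100% = basal without enzyme; dose as in the result columns while the protocol names 77 µM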
Rango complex inh: prevents formation of the Rango-importin beta complex; Q14974; Rango CFP/YFP FRET sensor + importin beta, 45 min; Potency, µM (highest dose often 92.2 µM), for the others: at the highest dose inhibition of complex formation; 340,000 compounds, 0.031% hits; AID 540263; active = rising FRET ratio curve, often small or poorly fitted; inconclusive = mostly compound fluorescence or quenching in the first reads; inactive = flat curves in all reads;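 further: potency means the concentration at half of the fitted maximal effect; 0% = DMSO wells and 100% = buffer wells lacking importin beta; nearly all actives have a fitted effect of over 15% in size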
Target sequence (Q14974 whole entry, looked up): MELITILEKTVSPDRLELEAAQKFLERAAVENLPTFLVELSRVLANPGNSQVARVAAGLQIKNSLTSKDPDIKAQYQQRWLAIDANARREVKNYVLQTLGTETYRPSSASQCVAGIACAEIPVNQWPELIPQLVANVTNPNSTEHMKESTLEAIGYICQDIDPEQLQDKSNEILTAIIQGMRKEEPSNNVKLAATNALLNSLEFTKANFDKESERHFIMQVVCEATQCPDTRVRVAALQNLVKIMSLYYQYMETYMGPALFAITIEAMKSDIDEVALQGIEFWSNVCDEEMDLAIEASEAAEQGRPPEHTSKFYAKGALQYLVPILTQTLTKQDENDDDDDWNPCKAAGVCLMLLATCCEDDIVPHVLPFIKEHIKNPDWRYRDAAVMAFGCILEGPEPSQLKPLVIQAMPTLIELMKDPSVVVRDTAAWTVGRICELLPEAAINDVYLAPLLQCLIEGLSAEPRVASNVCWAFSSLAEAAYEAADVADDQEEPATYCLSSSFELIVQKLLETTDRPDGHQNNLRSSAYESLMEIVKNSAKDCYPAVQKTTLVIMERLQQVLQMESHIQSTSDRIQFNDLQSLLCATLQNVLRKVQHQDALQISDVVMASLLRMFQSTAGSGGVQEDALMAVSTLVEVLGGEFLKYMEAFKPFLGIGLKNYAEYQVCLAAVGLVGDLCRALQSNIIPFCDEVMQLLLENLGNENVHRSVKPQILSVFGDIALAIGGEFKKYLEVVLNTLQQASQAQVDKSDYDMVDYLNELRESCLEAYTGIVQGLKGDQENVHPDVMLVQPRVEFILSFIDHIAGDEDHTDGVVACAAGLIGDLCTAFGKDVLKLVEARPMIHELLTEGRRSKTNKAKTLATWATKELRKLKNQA
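FRET biosensor Rango (snurportin 1 IBB between N-terminal EYFP and C-terminal Cerulean), 50 nM in PBS/1 mM DTT/0.02% Tween-20/0.1% BSA, preincubated 5 min RT with compound; 0.125 microM importin beta added, 45 min RT, CFP/YFP FRET ratio read.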
miR-21 FLuc: raises the signal of a miR-21 reporter | AID 2288 | Potency, µM (doses to about 38.3 µM), without a hit: at the highest dose reporter change, positive = more light | 340,000 tested, under 10 active | HeLa miR-21 FLuc reporter, luciferase, 48 h; active = well fitted rising curve with a large enough effect; inconclusive = small, poorly fitted or top-dose-only effect; inactive = no such curve, though single readings can be large or run the other way;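 further: % of control where 0% means no effect; miR-21 action dims this reporter so a rising signal means less miR-21 action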
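HeLa cells endogenously expressing miR-21, stably carrying CMV-driven firefly luciferase with a downstream miR-21 binding site, 2000 cells/well. Titrations up to approximately 40 uM, 48 hours; luciferase luminescence read.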
Rango release inh: inhibition of RanGTP-driven Rango-importin beta dissociation; Potency, µM (series often up to 46.1 µM), without a hit: at the highest dose activity change, negative = inhibition; O95149+P62826; 340,000 compounds, 0.071% hits; AID 540253; Biochemical FRET Rango-importin beta, RanGTP-induced dissociation; active means falling FRET ratio curve, often poorly fitted, with flat reads before Ran was added; inconclusive means other falling curves, or compound fluorescence or quenching; inactive means flat or rising ratio curve;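 further: potency means the concentration at half of the fitted maximal effect; % of control where 0% means no effect; nearly all actives have a fitted effect of over 45% in size; -100% = wells without RanGTP and RCC1; the record marks most hits as doubtful in a second field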
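Rango (0.1 uM)–importin beta (0.25 uM) complex; RanGTP-RCC1 trigger; 45 min RT; CFP/YFP FRET read.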
* = called active by the depositor; ? = inconclusive; . = not tested or not shown; & = joins results of further samples.

GLA inh pH 4.5	Rango complex inh	miR-21 FLuc	Rango release inh	molecule
5	-0.1%	-2%	-14%	CNC(=O)Nc1ccc(Cn2cc(C(F)(F)F)ccc2=O)cc1
6	-0.6%	-3%	0%	CC1CCCN(C(=S)SCC(=O)O)C1 (stereo not drawn)
-1	7.2%	0%	8%	CC(=O)N1CCN(CCN2C(C)=CC(=C(C#N)C#N)C=C2C)CC1
.	1.7%	.	5%	CCC1(c2ccccc2)SCC(c2ccccc2)=NC1=O (stereo not drawn)
3	-2.8%	-13%	22%	CNC(=O)COc1ccc(Nc2nnc(C)c3ccccc23)cc1
3	3.3%	-43%	-4%	CC(C)CCNC(=O)c1csc2c1CCCCC2
.	1.3%	.	3%	CC(C)Cn1c(N)c(C(=O)COC(=O)c2nccnc2N)c(=O)n(C)c1=O
.	-2.3%	6%	2%	CN(C(=O)CN1CCN(c2ccccc2F)CC1)C1CCCc2ccccc21 (stereo not drawn)
-3	-0.5%	-3%	-13%	CC(C)NS(=O)(=O)c1ccc(OCC(=O)NCc2cccnc2)cc1
1	0.0%	-47%	?	O=C(CSc1nc2ccccc2o1)c1ccc2c(c1)OCCO2
.	-0.3%	.	9%	CC(CNC1CCCCC1)OC(=O)c1ccccc1 (stereo not drawn)
-4	-1.2%	-2%	-5%	CCCCCC(=O)NNC(=S)NC(C)=O
-2	4.4%	1%	-14%	CCOC(=O)c1cc(-c2ccccc2)sc1NC(=S)Nc1cc(C)ccn1
.	0.1%	-2%	-11%	CCOc1ccccc1NS(=O)(=O)c1c(C)[nH]c(C)c1C(=O)N1CCCCC1
.	?	.	-13%	CCOc1ccc(Oc2ccc(S(=O)(=O)N3CCOCC3)cc2NC(=O)C2=COCCO2)cc1
.	-3.2%	.	-4%	CCN(C(=O)COC(=O)c1cccc(S(=O)(=O)N(C)C)c1)c1c(N)n(Cc2ccccc2)c(=O)[nH]c1=O
.	-0.8%	-1%	-11%	CC(=O)c1ccc(OCc2cc(C(=O)NC(C)Cc3ccccn3)no2)cc1 (stereo not drawn)
11	-0.5%	-5%	14%	Cc1cccc(NC(=O)CN(C)S(=O)(=O)c2cccc3nsnc23)c1C
-1	-1.2%	5%	21%	CC(=O)Nc1ccc(S(=O)(=O)Nc2cccc(NC(=O)c3ccco3)c2)cc1
.	-2.1%	8%	-5%	CCOc1c(C)cc(S(=O)(=O)NCc2ccccn2)c(C)c1C
1	0.4%	-19%	-11%	CSc1cccc(NC(=O)CSc2ncccc2C(=O)Oc2cccc([N+](=O)[O-])c2)c1
-4	-5.3%	16%	-19%	CN(C)c1cc(NC(=O)CNC(C)(C)CC(C)(C)C)c2ccccc2n1
2	-3.1%	-1%	9%	O=C(COC(=O)c1ccc(S(=O)(=O)N2CCCC2)cc1)NCc1cccs1
0	0.0%	0%	-7%	O=C(O)CC(Cc1ccc(Br)cc1)C(=O)O (stereo not drawn)

Sorted by value in miR-21 FLuc (falling): three of the compounds above.
GLA inh pH 4.5	Rango complex inh	miR-21 FLuc	Rango release inh	molecule
-4	-5.3%	16%	-19%	CN(C)c1cc(NC(=O)CNC(C)(C)CC(C)(C)C)c2ccccc2n1
-2	4.4%	1%	-14%	CCOC(=O)c1cc(-c2ccccc2)sc1NC(=S)Nc1cc(C)ccn1
2	-3.1%	-1%	9%	O=C(COC(=O)c1ccc(S(=O)(=O)N2CCCC2)cc1)NCc1cccs1

More entries.
GLA inh pH 4.5	Rango complex inh	miR-21 FLuc	Rango release inh	molecule
-14	?	1%	-22%	O=C1NNC(c2ccccc2)=N/C1=C\c1ccco1
7	0.2%	14%	-7%	S=C(NCc1ccco1)N1CCN(C(c2ccccc2)c2ccccc2)CC1
1	0.1%	-25%	1%	O=C(NCCCn1ccnc1)c1cc(-c2ccc3c(c2)OCO3)on1
.	-0.5%	0%	-11%	Cc1ccccc1NC(=O)CN1CCC(C(=O)c2ccc3c(c2)OCCO3)CC1
2	0.0%	-14%	4%	Cc1c(C(=O)N2CCOCC2)sc2ncnc(N3CCc4ccccc4C3)c12
7	0.9%	11%	-4%	CCN1CCN(C(=O)c2cc(-c3cccnc3)nc3ccc(Br)cc23)CC1
3	?	-17%	-12%	Nc1nc(-c2ccc(Cl)cc2Cl)cn1N
-17	-3.9%	11%	-9%	Cc1cccc(N2CCN(C(=O)c3ccc4c(c3)OCCO4)CC2C)c1 (stereo not drawn)
.	-2.7%	-47%	30%	COc1cn(-c2ccccc2)nc1C(=O)Nc1ccccc1
4	-4.2%	-78%	0%	Cc1ccc2cc(CCNC(=O)c3cccs3)c(=O)[nH]c2c1C
.	3.6%	.	2%	OCC[C@H]1C[C@@H](O)[C@H](O)[C@]2(OCCCc3ccccc32)O1
8	-3.1%	-3%	5%	COCCNC(=O)CCCCCN1C(=O)CCC1=O

Shown with values under each structure: 20 of the compounds above
Order of values – GLA inh pH 4.5 | Rango complex inh | miR-21 FLuc | Rango release inh
- CC(=O)c1ccc(OCc2cc(C(=O)NC(C)Cc3ccccn3)no2)cc1 (stereo not drawn)
  . | -0.8% | -1% | -11%
- Cc1cccc(NC(=O)CN(C)S(=O)(=O)c2cccc3nsnc23)c1C
  11 | -0.5% | -5% | 14%
- CC(=O)Nc1ccc(S(=O)(=O)Nc2cccc(NC(=O)c3ccco3)c2)cc1
  -1 | -1.2% | 5% | 21%
- CCOc1c(C)cc(S(=O)(=O)NCc2ccccn2)c(C)c1C
  . | -2.1% | 8% | -5%
- CSc1cccc(NC(=O)CSc2ncccc2C(=O)Oc2cccc([N+](=O)[O-])c2)c1
  1 | 0.4% | -19% | -11%
- CN(C)c1cc(NC(=O)CNC(C)(C)CC(C)(C)C)c2ccccc2n1
  -4 | -5.3% | 16% | -19%
- O=C(COC(=O)c1ccc(S(=O)(=O)N2CCCC2)cc1)NCc1cccs1
  2 | -3.1% | -1% | 9%
- O=C(O)CC(Cc1ccc(Br)cc1)C(=O)O (stereo not drawn)
  0 | 0.0% | 0% | -7%
- O=C1NNC(c2ccccc2)=N/C1=C\c1ccco1
  -14 | ? | 1% | -22%
- S=C(NCc1ccco1)N1CCN(C(c2ccccc2)c2ccccc2)CC1
  7 | 0.2% | 14% | -7%
- O=C(NCCCn1ccnc1)c1cc(-c2ccc3c(c2)OCO3)on1
  1 | 0.1% | -25% | 1%
- Cc1ccccc1NC(=O)CN1CCC(C(=O)c2ccc3c(c2)OCCO3)CC1
  . | -0.5% | 0% | -11%
- Cc1c(C(=O)N2CCOCC2)sc2ncnc(N3CCc4ccccc4C3)c12
  2 | 0.0% | -14% | 4%
- CCN1CCN(C(=O)c2cc(-c3cccnc3)nc3ccc(Br)cc23)CC1
  7 | 0.9% | 11% | -4%
- Nc1nc(-c2ccc(Cl)cc2Cl)cn1N
  3 | ? | -17% | -12%
- Cc1cccc(N2CCN(C(=O)c3ccc4c(c3)OCCO4)CC2C)c1 (stereo not drawn)
  -17 | -3.9% | 11% | -9%
- COc1cn(-c2ccccc2)nc1C(=O)Nc1ccccc1
  . | -2.7% | -47% | 30%
- Cc1ccc2cc(CCNC(=O)c3cccs3)c(=O)[nH]c2c1C
  4 | -4.2% | -78% | 0%
- OCC[C@H]1C[C@@H](O)[C@H](O)[C@]2(OCCCc3ccccc32)O1
  . | 3.6% | . | 2%
- COCCNC(=O)CCCCCN1C(=O)CCC1=O
  8 | -3.1% | -3% | 5%

Other results follow.
GLA inh pH 4.5	Rango complex inh	miR-21 FLuc	Rango release inh	molecule
.	-3.0%&-5.6%	-2%	-8%&-1%	CN1CCN(S(=O)(=O)c2ccc(Cl)cc2)CC1
-15	-3.3%	12%	6%	COc1ccccc1Oc1ccc(S(=O)(=O)Nc2cccnc2)cc1
0	2.7%&2.5%	?	-8%&10%	CCN(CC)CCOc1ccc(/C(=C(/Cl)c2ccccc2)c2ccccc2)cc1
-4	0.0%	-2%	-1%	CC1(C)CC(Nc2ccc(Nc3ccccc3)cc2)CC(C)(C)N1
-7	.	-1%	.	CCc1c(C)nc(SCC(=O)N2CCc3ccccc32)[nH]c1=O
-1	4.2%	-2%	-2%	Cc1cccc(C2CC(c3ccc(F)cc3)Nc3nc(N)nn32)c1 (stereo not drawn)
1	?	16%	?	COc1cccc(/C=N/NC(=O)c2c(-c3ccccc3)noc2C)c1O
?	-1.5%	3%	-28%	O=C(Nc1ccc(Cl)cc1)Nc1nnc(/C=C/c2ccccc2)s1
-16	0.0%	-13%	9%	CCN(CC)CCNc1ncnc2c1sc1nc(N3CCOCC3)c3c(c12)CC(C)(C)SC3
4	0.8%	-23%	-6%	Cc1cc(C(=O)N/N=C/c2c(C)n(C)c3ccccc23)n[nH]1
.	-0.8%	9%	0%	COc1ccc(C(=O)CN2C(=O)NC3(CCCc4ccccc43)C2=O)c(OC)c1 (stereo not drawn)
4	5.6%	-17%	23%	N#CCCn1c(C2CCCCC2)nc2ccccc21
6	-1.6%	-19%	-13%	COc1ccc(C2CC(=O)c3cnc(NC(=O)c4ccccc4OC)nc3C2)c(OC)c1 (stereo not drawn)
.	-0.4%	.	16%	COc1ccccc1C(=O)NCC(=O)OC(C)C(=O)NC1CCCCC1C (stereo not drawn)
.	0.7%	2%	9%	Cc1onc(-c2ccccc2)c1C(=O)Nc1ccc(S(=O)(=O)N2CCOCC2)cc1
6	-1.9%	0%	26%	CCOc1ccc(C(=O)OCC(=O)c2c(N)n(C)c(=O)n(C)c2=O)cc1OCC
-6	2.9%	10%	11%	Cc1cccc(Nc2c([N+](=O)[O-])cc(C(=O)N3CC(=O)Nc4ccccc43)cc2[N+](=O)[O-])c1
1	0.7%	0%	4%	O=C(Nc1ccccc1N1CCOCC1)c1cccnc1
2	-1.7%	-6%	-21%	Nc1nc(-c2nc3ccccc3[nH]2)cs1
10	-1.5%	-3%	20%	COc1cc(NC(=O)c2cccs2)c(C(=O)OCC(=O)NC(C)c2ccccc2)cc1OC (stereo not drawn)
-5	0.3%	12%	-9%	COC(=O)c1cc(C(=O)Nc2ccc(S(N)(=O)=O)cc2)cc([N+](=O)[O-])c1
.	0.0%	-1%	-3%	COc1ccc(/C=C(\NC(=O)c2ccc(OC)c(OC)c2)C(=O)N2CCN(C)CC2)cc1
.	-1.0%	6%	-7%	COc1ccc(C(C)NC(=O)c2ccncc2)cc1 (stereo not drawn)
-2	3.9%	-3%	2%	Cn1c(N)c(C(=O)COc2ccc(C#N)cc2)c(=O)n(C)c1=O
19	?	-23%	?	CC(=O)c1ccc(/C=C/c2nc3ccccc3n2C)o1
4	0.2%	-3%	-20%	COC(=O)c1ccc(S(=O)(=O)NNC(=O)c2ccc(S(=O)(=O)N3CCCCC3)cc2)cc1
-31	-2.3%	0%	-5%	Cc1cc(O)c(/C=N/OCc2ccc(Cl)cc2Cl)c(=O)o1
1	-3.9%	-21%&-17%	-10%	CCOc1ccc(NC(=O)N2CCC(c3ccc(C)cc3)C2)cc1 (stereo not drawn)
12	0.1%	-2%	2%	CCOC(=O)c1c(C)[nH]c(C(=O)COC(=O)/C=C/c2ccc(OC(F)F)cc2)c1C
.	4.4%	-61%	0%	Cc1c(C)n(CCc2ccccc2)c2ncnc(NCCO)c12
-16	0.3%	-4%	-1%	O=C(O)CCC(=O)Nc1cc(C(F)(F)F)cc(C(F)(F)F)c1
.	0.6%	.	-10%	COc1ccc(C(CNc2ccc(S(=O)(=O)N3CCN(C)CC3)cc2[N+](=O)[O-])N(C)C)cc1 (stereo not drawn)
.	0.5%	9%	0%	COc1ccccc1CC(=O)Nc1ccc2[nH]ncc2c1
-29	-1.0%	10%	8%	CC(C)CC(C(=O)NC1CCCC1)N(Cc1ccc2c(c1)OCO2)C(=O)c1snc(C(N)=O)c1N (stereo not drawn)
4	0.1%	-55%	20%	CCOC(=O)c1cnn(-c2ncnc3c2oc2ccccc23)c1N
3	-0.9%	-1%	1%	CCN(C(=O)COC(=O)/C=C/c1ccccc1)C1CCCCC1
.	-3.8%	14%	14%	C=CCn1c(SCC(=O)Nc2ccc(O)cc2)nc2sc(CC)cc2c1=O
-4	2.6%	0%	1%	O=C(O/N=C(/c1ccccc1)c1ccncc1)c1cccc(F)c1

Screens: PubChem BioAssay, National Center for Advancing Translational Sciences (NCATS)

Only part of the results is shown; rates above refer to the full screens.
